Rce1 inhib: yeast Ras-converting enzyme inhibition; AID 2563; yeast membranes, quenched prenylated peptide cleavage fluorescence; actives 0.27% (n = 290,000); Q03530; calls only;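 active means fall in fluorescence gain of 50% or more versus controls, with final raw signal at or below 3038400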;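 further: plate controls were neutral control wells for no effect and wells lacking membranes for full effect; tested at 10 µM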
Target sequence (Q03530 whole entry, looked up): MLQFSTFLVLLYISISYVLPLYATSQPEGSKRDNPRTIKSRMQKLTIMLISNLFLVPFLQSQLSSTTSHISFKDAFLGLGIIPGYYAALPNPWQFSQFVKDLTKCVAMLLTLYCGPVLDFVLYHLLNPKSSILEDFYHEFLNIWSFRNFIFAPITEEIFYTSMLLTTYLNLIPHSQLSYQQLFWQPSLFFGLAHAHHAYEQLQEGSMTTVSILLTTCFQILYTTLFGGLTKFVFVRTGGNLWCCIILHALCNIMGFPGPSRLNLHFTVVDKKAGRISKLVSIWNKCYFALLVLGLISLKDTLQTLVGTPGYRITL
Yeast UUG start: yeast start codon fidelity modulation; S. cerevisiae UUG-firefly luciferase reporter, luminescence/redox ratio; activity score, % at 18.7 µM; actives 0.13% (n = 350,000); AID 602363;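 active means replicate mean at a twofold rise or more, about +100% in these data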;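 further: firefly luciferase made from a UUG start codon reports start codon fidelity; reporter light over untreated wells divided by growth signal over untreated wells; some hits fall short of that in this replicate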
MT1-MMP act inh: inhibitors of human MT1-MMP activation; GFP/RFP ratio change, % at 20 µM; actives 0.061% (n = 360,000); HT1080 RFP-PRO-GFP cells, GFP/RFP ratio fluorescence, overnight; percent of plate control window, DMSO zero; P50281; AID 651647;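 active means GFP/RFP ratio change of at least 30% with cell ATP level not reduced by more than half and red fluorescence within 50% of control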; further: strong numbers were not always called active
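Material: RFP-PRO-GFP reporter HT1080 cells. Dosing: single-point 20 µM compound, 1% DMSO. Controls: DMSO and RFP-L50D-GFP cell wells. Timing: cells overnight before dosing, compound overnight, 37 °C, 5% CO2. Measure: GFP/RFP fluorescence ratio.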
HIV Env fusion: inhibitors of HIV Env-mediated cell fusion. HeLa-JRFL Env/CEM21 cell fusion, luciferase. inhibition, % at 12.3 µM. actives 1.1% (n = 360,000). AID 651610;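 active means mean replicate inhibition score of at least 50 and every replicate individually at or above 50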;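 further: 0% = plate neutral controls and 100% = maraviroc near 300 nM; one replicate is shown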
PABP polyA inh: PABP-poly(A) binding inhibition. P11940. PABP-poly(A) RNA binding, fluorescence polarization. inhibition, % at 35 µM. actives 1% (n = 290,000). AID 2014;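 active means 50% or more with normal probe brightness, or confirmed in later tests; about a fifth of its hits are not listed in these tables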;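 further: calls also rest on retests at 20 µM and on dose response follow-up; controls were probe without protein and protein plus probe with vehicle; some compounds called inactive have numbers as strong as hits; many hits fall short of the cut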
CSC inhib: cancer stem cell inhibition; inhibition, % at 7.5 µM; actives 1.1% (n = 300,000); cancer stem cell-like cells viability, luminescence;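 active means mean at 75% or more and at least half the replicates too; tested in HMLE shEcad cells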;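 further: 0% = median of negative and 100% = median of positive control wells; the first replicate is given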
eIF4H inh: inhibitors of RNA binding by human eIF4H | actives 0.94% (n = 290,000) | Q15056 | inhibition, % at 35 µM | eIF4H fluorescence polarization binding assay;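 active means 50% or more with normal probe brightness, or confirmed in later tests; about a fifth of its hits are not listed in these tables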;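 further: calls also rest on retests at 20 µM and on dose response follow-up; 0% = protein and probe with vehicle and 100% = probe without protein; strong numbers were not always called active; many hits fall short of the cut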
MT1-MMP act inh RFP: recorded beside MT1-MMP act inh, whose call it bears; RFP signal change, %; measured here: RFP expression control read;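 0 = vehicle wells; hits needed this value within 50% of zero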
* hit, by the source's call; i = inactive; · = no result given; & = joins results of further samples; [ ] = dose if it differs, or a comment.

SMILES | Rce1 inhib | Yeast UUG start | MT1-MMP act inh | MT1-MMP act inh RFP | HIV Env fusion | PABP polyA inh | CSC inhib | eIF4H inh
CCCn1c(CN2CCCCC2C)nc2c1c(=O)n(C)c(=O)n2C (stereo unspecified) | i | -9 | 1 | 1 | -14 | -10 | · | 2
CCC(C)[C@H](NC(=O)[C@@H]1CSC2c3ccccc3C(=O)N21)C(=O)NC1CCCC1 (stereo partly specified) | i | -11 | 0 | 5 | 1 | 5 | -11 | 1
COc1ccc(CCN=C(N)NS(=O)(=O)c2ccc(C)cc2)cc1OC | i | · | 1 | 0 | 20 | 3 | · | -9
CCN(CC(=O)Nc1ccc(OC)cc1)C(=O)c1ccc2c(=O)n3c(nc2c1)CCC3 | · | -13 | 0 | 4 | · | · | -3 | ·
Cn1cnnc1SCC(=O)Nc1ccc(F)cc1 | i | -8 | -4 | -4 | -4 | -1 | 1 | 2
N/C(Cc1ccc([N+](=O)[O-])cc1)=N\OC(=O)c1ccccc1Br | i | 0 | -1 | -2 | -41 | -10 | 2 | -4
COc1cc2c(cc1OC)C(C(=O)N1CCN(c3ccccn3)CC1)C(c1cccs1)N(C)C2=O (stereo unspecified) | i | -3 | 3 | 0 | -5 | 0 | -6 | -5
COc1ccccc1-c1nnc(SCC(=O)NCc2c(C)c(Cl)cc(C(C)C)c2O)o1 | · | -4 | -9 | -12 | 86* | -3 | -4 | -2
O=C(CCC1CCCCC1)NCc1cccnc1 | i | -25 | 0 | 3 | 8 | 14 | -11 | 5
CNc1cc([N+](=O)[O-])ccc1OCc1ccccc1 | i | -6 | 1 | -3 | -12 | -7 | 15 | -2
Cc1[nH]ncc1N=Cc1ccc([N+](=O)[O-])cc1 | i | · | 5 | 6 | 21 | 2 | -8 | 2
CCOC(=O)c1nn(-c2ccc(Cl)cc2)c2nnc(Cc3ccc(C)cc3)c(=O)n12 | i | · | 1 | 3 | 20 | 8 | -2 | 0
CNC(=S)N=Nc1c(O)[nH]c2ccccc12 | i | · | 11 | 5 | -8 | -8 | -10 | 1
CCC(C)NC(=O)Nc1ccc2c(c1)N(C)C(=O)c1ccccc1S2 (stereo unspecified) | i | 0 | 1 | -3 | 15 | -6 | -7 | 3
COc1ccc2[nH]c(C)c(CCNC(=S)Nc3ccccc3OC)c2c1 | i | · | -3 | -4 | 2 | -3 | 1 | 3
CCOC(=O)CCCCC(=O)c1[nH]c(=O)[nH]c1CSc1nc(C)cc(C)n1 | i | -7 | -2 | -2 | · | 1 | -4 | -13
COc1ccc(-c2nnc(SCC(=O)N(C)C3CCS(=O)(=O)C3)n2CC(C)C)cc1 (stereo unspecified) | · | -18 | -5 | 6 | i | · | · | ·
CC1(C)CC(=O)c2cc3c(N)c(C(=O)NCc4ccccc4)sc3nc2C1 | i | -1 | 2 | 2 | · | -3 | 35 | 1
Cc1occc1C(=O)N/N=C/c1ccc(Br)s1 | i | -5 | 4 | 3 | -29 | 8 | -6 | 4
COc1ccc(NC(=O)CSc2nnc(-c3cccs3)n2-c2ccccc2)cc1 | i | · | 2 | -5 | · | 4 | -23 | 4
CC(C)(C)OC(=O)N1CCN(C(=O)c2[nH]cnc2C(=O)N[C@@H](Cc2ccccc2)C(=O)OCc2ccccc2)CC1 | i | -16 | -1 | -1 | 1 | 10 | 0 | 9
COc1cc(NC(=O)Cn2cnc3sc(C)c(S(=O)(=O)N4CCN(C)CC4)c3c2=O)cc(OC)c1OC | i | · | · | · | · | 12 | 2 | -11
COc1ccc2c(c1)[nH]c1c(=O)n(N)cnc12 | i | -17 | 6 | 6 | · | -2 | · | 6
CN(C)/C=C1\N=C(c2cccs2)OC1=O | i | -15 | -12 | -5 | · | -8 | · | -1
COc1ccc(CN(C(=O)c2cccs2)c2ccccc2)cc1 | i | -3 | -3 | -1 | 9 | -4 | 5 | 2
Cc1cc2ncn(C(=O)c3ccc(F)cc3)c2cc1C | i | -9 | -4 | 2 | -5 | 0 | -11 | -2
COc1cc(-c2cc(NC=O)c3ncc(-c4ccccc4)n3c2)cc(OC)c1OC | · | 1 | 2 | 5 | 28 | · | · | ·
CCN1CCN(c2ccc(S(=O)(=O)N3CCCCC3)cc2NC(=O)Cc2ccccc2F)CC1 | i | -19 | 4 | 2 | -3 | · | -13 | ·
CCOC(=O)c1ccc(S(=O)(=O)Nc2ccc(N3CCOCC3)cc2)cc1 | i | -5 | 1 | -1 | -11 | -8 | 7 | 5
O=C(C1=C[C@@H](c2coc3ccccc3c2=O)C[C@@H](OCCCCO)O1)N1CCOCC1 | i | -2&-11 | -2 | 5 | -5[16.7 µM] | 22 | -15 | -3
COc1ccc(Cc2nc3ccc(C(=O)N4C[C@@H](C)O[C@@H](C)C4)cc3o2)cc1OC | i | -14 | -2 | -23 | -21 | · | -4 | ·
CCOc1ccccc1NC(=O)NC1(C(=O)N2CCOCC2)CCCCC1 | i | -45 | -3 | -12 | · | -3 | -13 | -4
Nc1nnc(N2CCCCC2)s1 | i | -2 | 4 | 4 | -66 | -5 | -4 | 2
CCC(CC)C(=O)N1CCN(Cc2ccc3c(c2)OCO3)CC1 | i | -20 | · | · | -12 | -1 | 13 | -6
CCCCc1nc(NCCNC(=O)c2ccccc2)c(C#N)c2c1CSC(C)(C)C2 | i | -35 | -15 | -9 | · | 6 | 15 | -4
COc1ccccc1Cn1[nH]nnc1=S | · | -13 | 4 | 2 | -19 | 9 | -13 | 2
CC(NC(=O)c1cccs1)C(S)c1ccccc1 (stereo unspecified) | i | -7 | -5 | -3 | 3 | 12 | 4 | -11
O=S(=O)(NCc1csc(-c2cccs2)n1)c1ccc(Cl)cc1 | i | 3 | 3 | -3 | 19 | 3 | -14 | -11
O=C(COc1cccc(F)c1)N[C@@H](Cc1ccccc1)c1nc2ccccc2[nH]1 | i | -13 | -4 | -9 | 9 | -1 | -3 | -1
COc1ccc(OCCN2CCN(S(=O)(=O)c3ccccc3C(F)(F)F)CC2)cc1 | · | 4 | 4 | -17 | -5 | · | · | ·

The list goes on; the last 5 above are carried over.
SMILES | Rce1 inhib | Yeast UUG start | MT1-MMP act inh | MT1-MMP act inh RFP | HIV Env fusion | PABP polyA inh | CSC inhib | eIF4H inh
COc1ccccc1Cn1[nH]nnc1=S | · | -13 | 4 | 2 | -19 | 9 | -13 | 2
CC(NC(=O)c1cccs1)C(S)c1ccccc1 (stereo unspecified) | i | -7 | -5 | -3 | 3 | 12 | 4 | -11
O=S(=O)(NCc1csc(-c2cccs2)n1)c1ccc(Cl)cc1 | i | 3 | 3 | -3 | 19 | 3 | -14 | -11
O=C(COc1cccc(F)c1)N[C@@H](Cc1ccccc1)c1nc2ccccc2[nH]1 | i | -13 | -4 | -9 | 9 | -1 | -3 | -1
COc1ccc(OCCN2CCN(S(=O)(=O)c3ccccc3C(F)(F)F)CC2)cc1 | · | 4 | 4 | -17 | -5 | · | · | ·
COc1ccccc1NC(=O)COC(=O)c1ccccn1 | i | 4 | 0 | 3 | -7 | -1 | -13 | -2
COc1cc2c(cc1OC)CN(C(=O)c1sccc1C)CC2 | i | · | 0 | -1 | -19 | -12 | -17 | 2
CCOc1ccc(C(=O)NC(=S)Nc2ccc(N3CCC(C)CC3)cc2)cc1[N+](=O)[O-] | i | -21 | 4 | 1 | · | -4 | · | -10
O=C(CS(=O)(=O)c1c[nH]c2ccccc12)Nc1ccc(F)cc1 | i | -1 | -2 | 2 | -25 | -2 | -4 | -2
CC(C)c1nc2ccc(NC(=O)C34CC5CC(CC(C5)C3)C4)cc2[nH]1 | i | -14 | 5 | -2 | · | 4 | -12 | 4
CC(=O)Nc1ccc(C(=O)NNC(=O)c2cccs2)cc1 | i | · | -2 | 3 | -13 | 3 | -9 | -8
COCCOC(=O)C1=C(C)NC(=O)NC1c1c(Cl)nc2c(C)cccn2c1=O (stereo unspecified) | i | · | · | · | · | 6 | -11 | 25
C(=N\N1CCN(C2c3ccccc3-c3ccccc32)CC1)/c1cccs1 | i | -8 | 1 | -2 | · | 9 | -13 | -10
O=C(N/N=C/c1cccc([N+](=O)[O-])c1)C1CC(=O)N(c2ccc(Br)cc2)C1 (stereo unspecified) | i | -4 | 8 | 1 | -7 | -2 | 1 | 3
COc1ccc(/C=C/C(=O)N(Cc2ccccc2)c2ccccn2)cc1OC | i | -16 | -1 | -1 | 2 | -1 | -19 | -3
Cc1nn(Cc2ccccc2)c(C)c1N | i | -16 | 2 | 5 | · | -8 | -1 | 2
Cc1ccc(SCC(=O)NC(C)(C)C)cc1 | i | · | 0 | 2 | -60 | -6 | -1 | 3
COc1cc(OC)c2c(-c3ccccc3)cc(C3CCCCC3)nc2c1 | · | -5 | -5 | -2 | 2 | · | · | ·
Cc1ccc(NC(=O)NN(C)c2c(Cl)c(Cl)nn2C)cc1 | i | -13 | -1 | 1 | 3 | -11 | · | 11
CC(=O)NCc1ccc(S(=O)(=O)N2CCN(S(=O)(=O)c3ccc4ccccc4c3)CC2)cc1 | · | 12 | -2 | 0 | -12 | · | · | ·
Cc1ccc(Cl)cc1N1CCN(C(=O)CCCn2c(=O)c3cccn3c3cccnc32)CC1 | i | -7 | -6 | -6 | 14 | · | 27 | ·
CC1(C(=O)NS(=O)(=O)c2ccc(Cl)s2)CCN1C(=O)Cc1ccc(Cl)cc1Cl (stereo unspecified) | · | -1 | 1 | 6 | 13 | · | · | ·
NS(=O)(=O)c1ccc(CNC(=O)Cc2ccc(S(=O)(=O)N3CCOCC3)s2)cc1 | i | -22 | 2 | 4 | -7 | · | -13 | ·
COc1cc(NC(=O)CSCC(=O)Nc2cc(OC)cc(OC)c2)cc(OC)c1 | i | · | · | · | · | 9 | 14 | 4
CCOC(=O)C1(Cc2ccccc2C(F)(F)F)CCN(C(C)COC)CC1 (stereo unspecified) | i | · | · | · | 13 | -8 | 40 | 1
CCOC(=O)/C=C/S(=O)(=O)c1ccc(NC(C)=O)cc1 | i | -18 | 2 | -3 | -111 | -3 | 54 | -10
CC1CCN(C(=O)c2ccc(Br)c(S(=O)(=O)N3CCOCC3)c2)CC1 | i | -9 | -1 | 4 | -26 | 12 | 13 | -1
COC(=O)C=CC(=NNc1ccccc1)c1ccccc1 | · | -2 | 2 | -10 | 12 | · | · | ·
O=C1CC(c2ccc(F)cc2)CC(O)=C1C=NCCN1CCN(C(=O)Nc2ccccc2)CC1 (stereo unspecified) | i | · | 4 | -2 | · | -1 | -2 | 7
Cc1ccnc(NC(=O)c2ccc(Br)s2)c1 | i | -25 | -5 | -1 | -86 | -4 | 11 | -1
O=C(N/N=C/c1ccccn1)c1cc(-c2ccccc2)nc2ccccc12 | i | -10 | 13 | 7 | 10 | 0 | 36 | 10
Cc1nn(Cc2c(Cl)cccc2Cl)c(C)c1C(=O)NCc1ccc(C)n1C | i | · | -3 | 1 | · | 18 | -1 | 44
Cn1cc(Br)c(C(=O)N/N=C/c2cc3ccccc3nc2Cl)n1 | i | -11 | 1 | -5 | -16 | 0 | -9 | -7
COc1cc(C(C)=O)ccc1Oc1cc(NN2CCCCC2)c([N+](=O)[O-])cc1[N+](=O)[O-] | i | -2 | -3 | -10 | -2 | 9 | 24 | 9
CC(C)C(=O)n1nc(-c2cccnc2)nc1NCc1ccc(F)cc1 | i | -6 | 2 | -1 | -20 | 8 | -14 | -2
COc1cccc(-c2nnc3sc(-c4cccs4)nn23)c1 | · | -14 | -3 | -3 | -77 | -2 | -14 | 1
Nn1c(SCC(=O)NCCc2ccc(F)cc2)nnc1C1CCCCC1 | · | -13 | 3 | 5 | · | · | -19 | ·
O=C(Nc1sc2c(c1C(=O)O)CCC2)c1ccco1 | i | -2 | 3 | 6 | -39 | 13 | -4 | -8
Cc1[nH]c2ccccc2c1CCC(N)=O | i | -7 | -2 | 7 | -115 | 1 | -3 | -2
COCCNC(=O)c1c(C)cc(C)cc1C | i | · | 11 | 12 | -4 | 3 | -11 | -4
